# Compound activity as filed in PubChem.
# Yeast UUG start = modulators of start codon recognition fidelity in yeast. S. cerevisiae UUG-firefly luciferase reporter, luminescence/redox ratio. activity score, % at 18.7 µM. hit rate 0.13% among 350,000;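 active = replicate mean at a twofold rise or more, about +100% in these data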;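 also: firefly luciferase made from a UUG start codon reports start codon fidelity; reporter light over untreated wells divided by growth signal over untreated wells; some hits fall short of that in this replicate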
# PABP polyA inh = PABP-poly(A) binding inhibition. PABP-poly(A) RNA binding, fluorescence polarization. inhibition, % at 35 µM. hit rate 1% among 290,000;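 active = 50% or more with normal probe brightness, or confirmed in later tests; inconclusive = above 50% with abnormal brightness, or retests that disagree; inactive = below 50% or failed in later tests; about a fifth of its hits are not listed in these tables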;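 also: calls also rest on retests at 20 µM and on dose response follow-up; controls were probe without protein and protein plus probe with vehicle; some compounds called inactive have numbers as strong as hits; many hits fall short of the cut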
# Target sequence (P11940 whole entry, looked up): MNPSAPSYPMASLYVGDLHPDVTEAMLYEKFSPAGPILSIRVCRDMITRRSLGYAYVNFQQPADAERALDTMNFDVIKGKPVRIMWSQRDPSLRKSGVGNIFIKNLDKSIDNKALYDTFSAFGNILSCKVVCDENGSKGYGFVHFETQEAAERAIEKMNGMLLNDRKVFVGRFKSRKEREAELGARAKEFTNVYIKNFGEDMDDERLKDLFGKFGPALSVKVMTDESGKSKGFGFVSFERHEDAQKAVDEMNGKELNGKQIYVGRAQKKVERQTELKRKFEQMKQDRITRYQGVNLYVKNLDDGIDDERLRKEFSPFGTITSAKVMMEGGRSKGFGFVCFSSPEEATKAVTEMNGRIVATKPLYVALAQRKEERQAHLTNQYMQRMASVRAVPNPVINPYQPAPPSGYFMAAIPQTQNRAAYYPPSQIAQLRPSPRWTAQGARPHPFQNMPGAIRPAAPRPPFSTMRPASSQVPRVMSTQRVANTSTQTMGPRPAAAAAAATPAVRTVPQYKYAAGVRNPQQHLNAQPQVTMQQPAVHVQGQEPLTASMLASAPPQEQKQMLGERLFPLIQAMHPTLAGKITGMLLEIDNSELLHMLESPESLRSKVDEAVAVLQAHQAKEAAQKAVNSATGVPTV
# MT1-MMP act inh = inhibitors of human MT1-MMP activation; P50281; HT1080 RFP-PRO-GFP cells, GFP/RFP ratio fluorescence, overnight; percent of plate control window, DMSO zero; GFP/RFP ratio change, % at 20 µM; hit rate 0.061% among 360,000; AID 651647;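 active = GFP/RFP ratio change of at least 30% with cell ATP level not reduced by more than half and red fluorescence within 50% of control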; also: strong numbers were not always called active
#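 Material – HT1080 RFP-PRO-GFP cells · Control set – DMSO wells and RFP-L50D-GFP cells · Incubation – overnight cell settling, then overnight compound exposure, 37 °C, 5% CO2 · Compound dosing – single-point 20 µM compound, 1% DMSO · Read-out – GFP/RFP fluorescence ratio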
# CSC inhib = blocks cancer stem cells | inhibition, % at 7.5 µM | cancer stem cell-like cells viability, luminescence | hit rate 1.1% among 300,000;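 active = mean at 75% or more and at least half the replicates too; inconclusive = mean and replicates disagree; tested in HMLE shEcad cells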;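 also: 0% = median of negative and 100% = median of positive control wells; the first replicate is given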
# Env fusion inh = blocks HIV Env-driven cell-cell fusion | HeLa-JRFL Env/CEM21 cell fusion, luciferase | inhibition, % at 12.3 µM | hit rate 1.1% among 360,000 | AID 651610;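 active = mean replicate inhibition score of at least 50 and every replicate individually at or above 50; inconclusive = only one of the two criteria met; inactive = mean below 50 and not all replicates reaching 50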;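 also: 0% = plate neutral controls and 100% = maraviroc near 300 nM; one replicate is shown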
# eIF4H inh = inhibitors of RNA binding by human eIF4H; Q15056; hit rate 0.94% among 290,000; eIF4H fluorescence polarization binding assay; inhibition, % at 35 µM;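 active = 50% or more with normal probe brightness, or confirmed in later tests; inconclusive = above 50% with abnormal brightness, or retests that disagree; inactive = below 50% or failed in later tests; about a fifth of its hits are not listed in these tables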;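 also: calls also rest on retests at 20 µM and on dose response follow-up; 0% = protein and probe with vehicle and 100% = probe without protein; strong numbers were not always called active; many hits fall short of the cut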
# Rce1 inh = yeast Ras-converting enzyme inhibition; Q03530; yeast membranes, quenched prenylated peptide cleavage fluorescence; calls only; hit rate 0.27% among 290,000; AID 2563;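 active = fall in fluorescence gain of 50% or more versus controls, with final raw signal at or below 3038400; inconclusive = same 50% fall but final raw signal above 3038400; inactive = fall in fluorescence gain under 50%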;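 also: plate controls were neutral control wells for no effect and wells lacking membranes for full effect; tested at 10 µM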
# eIF4H inh retest = recorded beside eIF4H inh, whose call it bears; inhibition, %; compound at 20 µM; confirmation average;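 mean of two retest wells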
# PABP polyA inh retest = recorded beside PABP polyA inh, whose call it bears; inhibition, %; compound at 20 µM; confirmation repeats;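 mean of two retest wells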
# MT1-MMP act inh RFP = also measured in MT1-MMP act inh; calls as there; RFP signal change, %; measured here: RFP expression control read;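 0 = vehicle wells; hits needed this value within 50% of zero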
# Active calls of the source: *; i = inactive; ? = inconclusive; . = no result given. The list is partial. The share of hits here may be higher or lower than overall.
SMILES,Yeast UUG start,PABP polyA inh,MT1-MMP act inh,MT1-MMP act inh RFP,CSC inhib,Env fusion inh,eIF4H inh,Rce1 inh,others
CCC1(c2ccc(Cl)cc2)NC(=S)N(c2ccccc2)N1 (centres undefined),-20,10,3,-1,-4,.,-3,i,
O=C(Nc1nc(-c2cccs2)c(-c2cccs2)s1)C1(c2ccccc2)CC1,-8,3,-11,-8,43,.,-10,i,
Cc1ccc(C(O)c2ncc(-c3ccc(F)cc3)[nH]2)cc1F (centres undefined),-15,.,2,1,.,30,.,.,
O=[N+]([O-])c1ccccc1SN(Cc1ccccc1)c1ccccn1,.,5.0*,-1,4,26,-4,58*,i,eIF4H inh retest=98*;PABP polyA inh retest=90*
O=C1C(Cl)=C(NCCc2ccccc2)C(=O)N1CCc1ccccc1,-5,7,-4,-2,7,27,8,i,
Cc1ccccc1CC(=O)N1CC(C)OC(C)C1 (centres undefined),-21,-12,0,3,-9,4,-5,i,
O=C(/C(=N/N=C/c1ccc(O)c(O)c1O)c1ccccc1)c1ccccc1,-4,-3,-6,-8,21,-20,85,i,eIF4H inh retest=2;PABP polyA inh retest=1
COc1ccc2c(c1)O[C@H]1c3ccc(O)cc3OC[C@@H]21,-5,.,3,-1,4,.,.,i,
COc1ccc(C2c3c(oc4ccccc4c3=O)C(=O)N2c2ccc(C)cn2)cc1OC (centres undefined),-12,-12,-1,0,-13,-14,-9,i,
O=C(NCc1cccs1)c1ccc(Cl)c(S(=O)(=O)N2CCOCC2)c1,-3,.,3,0,.,-1,.,.,
COC(=O)c1cccc(C23CC4(C2)[C@H](CN(Cc2cccnc2)[C@@H]4c2ccccc2)C3c2ccc(C(F)(F)F)cc2)c1 (some centres undefined),.,-8,.,.,20,31,9,i,
CC1CCCN(C(=O)COC(=O)c2ccc[nH]c2=O)C1 (centres undefined),-12,0,1,-2,-11,.,7,i,
Cc1cccc(N(CC(=O)NC2CCCC2)C(=O)CS(=O)CC(=O)Nc2ccc3c(c2)OCO3)c1 (centres undefined),.,-5,5,3,.,-39,-4,i,
COC(=O)CN1CCN(C(c2ccccc2)c2ccccc2)CC1,-8,-4,-6,-2,-11,-8,-2,i,
O=C(NCc1cccc(F)c1)C1CCC(=O)N(C2CC2)C1 (centres undefined),-20,2,-1,-1,-1,-7,1,i,
CCN1CCc2c(sc(NC(=O)Cc3ccccc3)c2C(=O)OC)C1,-10,4,-1,3,-2,.,-15,i,
Cc1cccc2c(=O)cc(C)n(CC(N)=O)c12,.,10,5,0,-3,-3,0,i,
CC(=O)NCCNC(=O)C1Cc2c(-c3ccc4c(c3)OCO4)ccnc2O1 (centres undefined),2,.,0,5,.,2,.,.,
CN1CCN(c2cc(-c3ccccc3)nc3cc(-c4ccc(F)cc4)nn23)CC1,.,-6,-3,-13,64,.,4,i,
Cc1cc(C)n(-c2nc3c(c(=O)[nH]c(=O)n3C)n2Cc2ccccc2)n1,.,2,1,-2,-2,.,-7,i,
O=C(c1ccco1)N1CCN(C(=O)c2cc(-c3ccc(F)cc3)no2)CC1,-5,2,-4,-1,-7,-7,-7,i,
OCCN(CC#CCn1c2ccccc2c2ccccc21)CCO,.,-10,10,3,-18,-6,-7,i,
CC(C)OC(=O)c1c(NC(=O)c2cnn3c2NC(c2ccccc2)CC3C(F)(F)F)sc2c1CCCC2 (centres undefined),-11,-7,0,-1,24,.,-2,i,
CC(C)N(Cc1ccccc1)C(=O)COC(=O)c1ccccc1SCC(=O)N1CCCC1,.,.,1,0,0,22,.,.,

# Gathered by group: the compounds so far with a Cl atom.
SMILES,Yeast UUG start,PABP polyA inh,MT1-MMP act inh,MT1-MMP act inh RFP,CSC inhib,Env fusion inh,eIF4H inh,Rce1 inh,others
CCC1(c2ccc(Cl)cc2)NC(=S)N(c2ccccc2)N1 (centres undefined),-20,10,3,-1,-4,.,-3,i,
O=C1C(Cl)=C(NCCc2ccccc2)C(=O)N1CCc1ccccc1,-5,7,-4,-2,7,27,8,i,
O=C(NCc1cccs1)c1ccc(Cl)c(S(=O)(=O)N2CCOCC2)c1,-3,.,3,0,.,-1,.,.,

# Additional results
SMILES,Yeast UUG start,PABP polyA inh,MT1-MMP act inh,MT1-MMP act inh RFP,CSC inhib,Env fusion inh,eIF4H inh,Rce1 inh,others
O=C(CC(=O)c1ccccc1)Nc1ccc2c(c1)OCCO2,-27,5,3,1,7,.,1,i,
COc1ccc(/C=C/C(=O)O/N=C(\N)c2ccccc2)cc1OC,-7,0,2,2,0,.,-5,i,
COC(=O)CSc1nnc(-c2ccco2)n1Cc1ccco1,-23,2,5,11,.,.,0,i,
Cn1c(=O)[nH]c(=O)c2c1nc(N1CCN(c3cccc(Cl)c3)CC1)n2CCCc1ccccc1,.,-3,.,.,.,.,4,i,
CCc1nc2ccc(C(=O)NCCN3CCOCC3)cn2c1N(CC)CCOC,-1,.,2,1,.,-8,.,.,
O=C(CSc1nnc(-c2ccncc2)n1Cc1ccco1)N1c2ccccc2Sc2ccc(Cl)cc21,-18,-7,-13,-16,2,.,18,i,
COc1ccc2c(C)cc(SCC(=O)Nc3cccnc3Cl)nc2c1,.,-12,0,-1,32,15,15,i,
Cc1c(Cl)cccc1NC(=S)N1CCOCC1,.,38,1,2,5,-15,6,.,
COc1ccccc1N1CCN(C(=O)c2ccncc2)CC1,-19,-11,1,4,0,2,-6,i,
Cc1cc(C)cc(C(=O)NCC(=O)OCC(=O)Nc2ccc(C)cc2Br)c1,3,1,2,0,-6,8,-11,i,
COc1ccc(C2CCN(CC(=O)N(C)C)CC2O)cc1 (centres undefined),.,8,6,4,9,8,7,.,
Cc1ccc(NC(=O)/C=C\C(=O)O)c([N+](=O)[O-])c1,.,-8,1,-1,10,.,4,i,
CN1OC[C@@H]2CN(Cc3cc(Cl)cc(Cl)c3)[C@H](c3cccc(Br)c3)C[C@@H]21,8,.,1,-7,.,-11,.,.,
CC(C)NC(=O)C1(C)CCN1C(=O)c1cccc(Cl)c1 (centres undefined),-16,.,3,-1,.,-27,.,.,
O=C(CSc1nccn1Cc1ccccc1)NC1CCCC1,-3,-6,-1,-1,-9,-5,1,i,
COc1ccc(CNC(=O)C/C(C)=N/NC(=O)c2ccc(OC)cc2OC)cc1,-4,1,1,3,-5,-1,9,i,
CCCCCCCCNCCS(=O)(=O)NN1CCOCC1,-8,.,4,6,.,-3,.,.,
O=C(Nc1cccc(Cl)c1)c1nc[nH]c1C(=O)NCCCCNC(=O)c1[nH]cnc1C(=O)Nc1cccc(Cl)c1,-12,.,-1,0,.,39,.,.,
CCOCCCn1c(=S)[nH]c2cc(C(=O)N3CCN(C4CCCCC4)CC3)ccc2c1=O,-22,-11,1,-5,14,-2,-2,i,
Clc1ccc2c(NNc3ccccc3Cl)ccnc2c1,-20,-3,7,8,7,-159,-4,i,
CCOC(=O)c1ccc(CC2S/C(=C(\C#N)C(C)=O)NC2=O)cc1 (centres undefined),-25,12,-30,2,12,-7,-8,i,
O=C(Nc1cccc(-c2nc3ccccc3[nH]2)c1)c1ccco1,-31,-4,9,-2,-18,-41,0,i,
COc1ccc(/C=C2\SC(=S)N(CCC(=O)Nc3ccccc3C(=O)O)C2=O)cc1,-22,30,3,0,-3,19,-10,i,
Cc1cc(C)n(-c2cc(Oc3ccccc3)ncn2)n1,.,-6,-4,-4,12,-42,-14,i,
COC(=O)c1cc(NC(=O)CN2C(=O)C(=O)N(C3CCCC3)C2=O)cc(C(=O)OC)c1,5,.,-4,-2,-2,-2,.,.,
O=C(c1cccc(Br)c1)N1CCN(S(=O)(=O)N2CCOCC2)CC1,.,7,-1,0,-5,7,-1,i,
COc1cccc(-c2c(C#N)c(SC)nc3cc(C)nn23)c1,.,1,0,2,5,-1,-15,i,
Cc1ccc(C)c(N2CCN(C(=O)C3CCN(c4nc(C)cc(C)n4)CC3)CC2)c1,25,0,-3,-6,10,4,-1,i,
O=C(Nc1ccon1)Nc1ccc(F)cc1F,-16,-14,-5,0,11,-167,-3,i,
CC(=O)c1cccc(NC(=O)C2CC(=O)N(Cc3ccccc3)C2)c1 (centres undefined),-9,-3,-1,-3,8,.,-1,i,
NS(=O)(=O)c1ccc(CCNS(=O)(=O)c2ccc(Cl)cc2)cc1,-16,-2,4,2,-4,-7,-9,i,
CCN(CCNC(=O)CC1Oc2ccccc2NC1=O)c1ccccc1 (centres undefined),-10,3,-5,-1,5,-14,-3,i,
C=CCN1C(c2ccccc2)=CS/C1=C(/C#N)c1nnc(N2CCOCC2)n1-c1ccccc1,.,0,-2,-1,-17,?,-12,i,
CCn1nnc2cc(C(=O)O)ccc21,-10,12,8,10,-12,-2,16,i,
CCn1c(SCC(=O)N2CCCCC2)nc(O)cc1=O,0,10,2,6,-16,.,2,i,
Cc1occc1C(=O)NN=C1C2CC3CC(C2)CC1C3,-17,-8,-2,5,-3,1,5,i,
C=CCN(C#N)c1nc(OC)nc(N2CCCC2)n1,-31,-10,-5,-13,-11,-8,3,i,
CCn1cc([N+](=O)[O-])c(C(=O)NCc2ccc(Cl)cc2)n1,.,-2,1,6,8,0,-2,i,
O=C(N1CCOCC1)C1(c2ccccc2)CCCCC1,-7,1,1,3,-3,-76,-4,i,
CCNC(=S)N(Cc1ccc2c(c1)OCO2)C1CC(=O)N(c2ccc(OC)cc2)C1=O (centres undefined),-17,6,-3,-2,0,.,10,i,
CC(C)N=c1scc(-c2cccs2)n1/N=C/c1ccc(O)c(O)c1O,.,-9,-24,-22,43,-30,84,.,eIF4H inh retest=5;PABP polyA inh retest=3
COc1ccc(CCNC(=O)Cn2cnc3c(nnn3Cc3ccccc3F)c2=O)cc1OC,-32,2,2,0,9,.,-6,i,
Cc1c(C#N)c(O)[nH]c(=O)c1N=Nc1ccc(S(N)(=O)=O)cc1,10,27,5,3,-3,10,9,i,
O=C(Cc1ccccc1F)Nc1cccc2cccnc12,-3,19,3,3,2,.,-7,i,
COC(=O)[C@]1(Cc2ccccc2)N[C@H](CN(C)C(=O)C2CCCCC2)[C@@H]2C(=O)N(Cc3ccccc3)C(=O)[C@@H]21,-15,.,-5,-8,.,-1,.,.,
COc1ccc(C(C)C)cc1S(=O)(=O)n1cnc(C)c1,-14,-1,2,2,.,-46,-3,i,
CC(=O)c1ccc(Nc2nc3ccccc3nc2NS(=O)(=O)c2cccs2)cc1,-1,28,-10,-17,35,7,-3,i,
CCN(CC(=O)Nc1c(F)cccc1F)C(=O)CCCc1c[nH]c2ccccc12,0,4,1,-3,-6,0,0,i,
COC(=O)c1ccc(-c2ccc(/C=N/N3C(=O)C4C5C=CC(CC5)C4C3=O)o2)cc1 (centres undefined),.,3,-2,-1,38,-38,1,.,
ClC1CCCCC1n1nnc2ccccc21 (centres undefined),.,.,1,0,-3,-4,.,i,
Cc1nn(-c2ccccc2)c(N)c1C(O)(CSc1nccn1C)C(F)(F)F (centres undefined),.,3,0,0,-4,10,-8,i,
Cc1nc(C)c(CCNC(=O)c2ccccc2)s1,-28,5,6,5,0,.,1,i,
Cc1ccc(S(=O)(=O)CCc2nnc(NC(=O)C3CCCCC3)s2)cc1,-23,41,4,1,-5,-3,7,i,
COc1ccc(C(=O)OCC(=O)c2c(N)n(C)c(=O)n(C)c2=O)c(OC)c1OC,7,.,1,-1,10,3,.,.,
COc1cnc(-c2ccccn2)nc1NC(C)C,.,8,-3,-6,-2,24,10,i,
